total CFTR: total CFTR protein upregulators, primary screen, cell-based, HeLa F508del-CFTR, immunofluorescence, viability (AID 1224863); HeLa F508del-CFTR, immunofluorescence total CFTR, 24 h; by the record results were divided by relative cell number; some inactives read as strong as hits; 10,000 compounds, 0.1% hits; calls, or highest fold increase where a dose series was run; in the data nearly all actives have a first-pass fold increase above 1.5; a few of its hits are not listed in these tables;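 further: total CFTR protein by anti-CFTR immunofluorescence in fixed cells; first pass at 25 µM or 10 µg/mL by library and series up to twice that; 1 = untreated cells; first-pass hits also needed half or more of the cells alive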
total CFTR fold 25 µM: recorded beside total CFTR, whose call it bears; fold increase; measured here: primary screen single dose 25 uM; library dosed in µM
total CFTR fold 10 ug/mL: recorded beside total CFTR, whose call it bears; fold increase; measured here: primary screen 10 ug/mL
total CFTR viability 25 µM: further read-out of total CFTR, marked with its call; viability, %; measured here: primary viability 25 uM; library dosed in µM;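 0% = killed and 100% = untreated cells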
total CFTR viability 10 ug/mL: further read-out of total CFTR, marked with its call; viability, %; measured here: primary viability 10 ug/mL;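 0% = killed and 100% = untreated cells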
An asterisk follows results filed as active; i = inactive; . = no result given; & = joins results of further samples. Not all compounds are listed. The share of hits here may be higher or lower than overall.

SMILES	total CFTR	total CFTR fold 10 ug/mL	total CFTR viability 10 ug/mL	others
O=C1Nc2ccccc2SC1CC(=O)N1CCC1 (centres undefined)	i	1	95
COCCN1C(=O)C(=O)/C(=C(/O)c2ccccc2)C1c1cccc(Oc2ccccc2)c1 (centres undefined)	i	0.99	106
O=C(O)c1cnn(CCO)c1C(F)(F)F	i	1	93
C[C@@H]1C[C@H]2[C@@H]3CCC4=CC(=O)C=C[C@]4(C)[C@@]3(F)[C@@H](O)C[C@]2(C)[C@@]1(O)C(=O)CO	i	0.88	89	total CFTR fold 25 µM=1.1&1.1;total CFTR viability 25 µM=91&102
CC(=O)Nc1ccc(NC(=O)CN2CSCC2=O)cc1	i	1.1	71
CC(C)(C)NC(=O)NC(=O)COC(=O)C12CC3CC(CC(O)(C3)C1)C2	i	1.1	92
O=C(CSc1nnc(C2CC2)n1C1CC1)C12CC3CC(CC(C3)C1)C2	i	1.1	90
Cc1ccc(C(=O)NC2CC2)n1C	i	1.1	107
FC(F)(F)c1nnc2ccc(N3CCN(Cc4cccc(Cl)c4)CC3)nn12	i	1	110
COc1cc2c(c(OC)c1OC)-c1ccc(OC)c(=O)cc1[C@@H](NC(C)=O)CC2	i	.	.	total CFTR fold 25 µM=0.71;total CFTR viability 25 µM=82
Cc1cc(NC(=O)C(C)Sc2nc3sc(C)c(C)c3c(=O)n2C)no1 (centres undefined)	i	0.94	82
CC(C)CCN1Cc2cc(C(=O)c3cc(Cl)cc(CSc4ncccn4)c3O)cnc2NC1=O	i	0.98	86
CC(NS(=O)(=O)c1ccc2c(c1)OCCO2)c1ccncc1 (centres undefined)	i	0.88	114
O=[N+]([O-])c1c(NC2CCCCCC2)nc2sccn12	i	1.1	96
CCOC(=O)c1[nH]c(CSC2=NC3CCCCC3N2)c(C(=O)OCC)c1C (centres undefined)	i	0.99	81
Cn1c(=S)n(CN2CCN(S(=O)(=O)c3ccc(F)c(F)c3)CC2)c2ccccc21	i	1.1	111
CC(=O)c1c(C)[nH]c(C(=O)C(C)Sc2nnnn2C(C)C)c1C (centres undefined)	i	1	84
CCCCCCNC(=O)Nc1nccs1	i	0.75	93
CSc1nc(-c2ccco2)nc(C)c1C(=O)NC1CCC(C)CC1 (centres undefined)	i	1	79
O=c1ccn([C@H]2C[C@H](O)[C@@H](COF)O2)c(=O)[nH]1	i	.	.	total CFTR fold 25 µM=1;total CFTR viability 25 µM=89
Cc1cc(C)c(S(=O)(=O)NC2CCN(C3CC3)CC2)c(C)c1	i	0.96	87
CC1CN(C(=O)C(NC(=O)C23CC4CC(CC(C4)C2)C3)C(C)C)CC(C)O1 (centres undefined)	i	0.92	90
CC1=C(C(=O)N2CCOCC2)C(c2cc(Br)cs2)NC(=O)N1 (centres undefined)	i	1.1	94
CC1N=Nc2c(C(N)=O)ncn2C1=O (centres undefined)	i	.	.	total CFTR fold 25 µM=0.96;total CFTR viability 25 µM=104
COCCN1C(=O)C(=O)N(Cc2nc(-c3ccc(F)cc3)no2)C1=O	i	1.2	91
(next part)
SMILES	total CFTR	total CFTR fold 10 ug/mL	total CFTR viability 10 ug/mL	others
C=CCn1cnn(CN2CCN(C(=O)c3ccc(Cl)cc3Cl)CC2)c1=S	i	0.95	98
O=S(=O)(NC1CCSc2ccccc21)c1cccc2nsnc12 (centres undefined)	i	1.1	93
CC(=O)NCc1ccc(C(=O)C(C)Sc2ncnc3sccc23)s1 (centres undefined)	i	0.9	96
Cn1cc(C(=O)OCc2csc(-c3cccs3)n2)cn1	i	0.95	79
Cc1nc2ccccc2n1Cc1ccc(Cl)cc1	i	.	.	total CFTR fold 25 µM=0.88;total CFTR viability 25 µM=86
Cc1cc2nc(C)c(CCC(=O)NCC3CCCO3)c(C)n2n1 (centres undefined)	i	1.1	105
CCC(C)c1ccc(C2=C(c3ccc([N+](=O)[O-])cc3)C(=O)OC2)cc1 (centres undefined)	i	0.91	83
Cc1cc(/C=C/C(=O)N2CCN(S(=O)(=O)c3cccs3)CC2)c(C)n1C1CC1	i	0.99	83
Cc1cc(-c2cc(-c3ccccc3)c3cc([N+](=O)[O-])ccc3n2)c(C)o1	i	1	99
c1ccc(-c2nnc(N3CCc4ccccc4C3)s2)cc1	i	0.84	84
Cc1onc(-c2ccccc2)c1C(=O)N[C@@H]1C(=O)N2[C@@H]1SC(C)(C)[C@@H]2C(=O)O	i	.	.	total CFTR fold 25 µM=1;total CFTR viability 25 µM=83
Cc1[nH]c(C(=O)N(C)C2CCS(=O)(=O)C2)c(C)c1C(=O)OC(C)C (centres undefined)	i	1.1	96
CC(C)Oc1ccc(CCCO)cc1	i	1.1	109
CCc1sc(C(=O)NCCC(C)C)cc1C	i	0.85	74
C#C[C@]1(OC(C)=O)CCC2C3CCC4=CC(=O)CC[C@@H]4C3CC[C@@]21C (some centres undefined)	i	.	.	total CFTR fold 25 µM=1;total CFTR viability 25 µM=87
NCC1CC2c3ccccc3C1c1ccccc12 (centres undefined)	i	0.96	93
Cn1ccnc1SCc1nc2cc([N+](=O)[O-])ccc2n1-c1ccc(F)cc1	i	0.93	102
Nc1ccc(S(=O)(=O)O)cc1	i	.	.	total CFTR fold 25 µM=1.1;total CFTR viability 25 µM=93
Oc1c(I)cc(Cl)c2cccnc12	i	.	.	total CFTR fold 25 µM=0.94;total CFTR viability 25 µM=85
Cn1cc(/C=C2\N=C(C34CC5CC(CC(Cl)(C5)C3)C4)OC2=O)cn1	i	1	100
O=S(=O)(c1ccc2c(c1)CCCC2)N1CCCC1	i	0.93	83
CC(C)CCCC(C)NS(=O)(=O)c1cc2c(cc1Br)NC(=O)CO2 (centres undefined)	i	0.94	85
CN(CC12CC3CC(CC(C3)C1)C2)C(=O)C1CCN(C(=O)C(C)(C)C)CC1	i	0.96	85
Cc1nn(CC(=O)NC(C)(C)C)c(C)c1[N+](=O)[O-]	i	0.99	94
COC(=O)c1c(C)[nH]c(C(=O)COC(=O)c2cnn(C)c2)c1C	i	1.1	91

Of the compounds above, these contain a furan ring, fused or not.
SMILES	total CFTR	total CFTR fold 10 ug/mL	total CFTR viability 10 ug/mL	others
CSc1nc(-c2ccco2)nc(C)c1C(=O)NC1CCC(C)CC1 (centres undefined)	i	1	79
Cc1cc(-c2cc(-c3ccccc3)c3cc([N+](=O)[O-])ccc3n2)c(C)o1	i	1	99

Fetched by compound from the entries so far:
SMILES	total CFTR	total CFTR fold 10 ug/mL	total CFTR viability 10 ug/mL	others
CCC(C)c1ccc(C2=C(c3ccc([N+](=O)[O-])cc3)C(=O)OC2)cc1 (centres undefined)	i	0.91	83
Cc1cc(/C=C/C(=O)N2CCN(S(=O)(=O)c3cccs3)CC2)c(C)n1C1CC1	i	0.99	83

The main list resumes with the 2 entries that preceded the break.
SMILES	total CFTR	total CFTR fold 10 ug/mL	total CFTR viability 10 ug/mL	others
Cc1nn(CC(=O)NC(C)(C)C)c(C)c1[N+](=O)[O-]	i	0.99	94
COC(=O)c1c(C)[nH]c(C(=O)COC(=O)c2cnn(C)c2)c1C	i	1.1	91
COc1cnc(NS(=O)(=O)c2ccc(N)cc2)nc1	i	.	.	total CFTR fold 25 µM=0.88&1.1;total CFTR viability 25 µM=85&95
O=c1c2ccccc2nc(SCc2cc(=O)n3ccsc3n2)n1CCCN1CCOCC1	i	0.91	86
CC(C)CCCC(C)NS(=O)(=O)c1ccc(S(=O)(=O)N(C)C)cc1[N+](=O)[O-] (centres undefined)	i	0.92	77
COCCOC(=O)C1=C(C)NC(=S)NC1c1ccc(Cl)cc1 (centres undefined)	i	0.96	99
O=C1CCCc2cc(C(=O)Cn3ncc(Cl)c(Cl)c3=O)ccc2N1	i	0.94	73
COc1cc(OC)cc(-c2nnc(SCCc3ccccc3)o2)c1	i	0.99	105
CC(Nc1ccc2c(c1)NC(=O)C(C)O2)C(=O)Nc1ccc2c(c1)OCO2 (centres undefined)	i	0.91	71
CC1(C)S[C@@H]2[C@H](NC(=O)C(C(=O)O)c3ccccc3)C(=O)N2[C@H]1C(=O)O (some centres undefined)	i	.	.	total CFTR fold 25 µM=0.94;total CFTR viability 25 µM=86
CC(C)OCCCNC(=O)N1CCN(c2cnccn2)CC1	i	1.1	110
CC(C)NC(=O)CSc1nnnn1C(C)C	i	1	95
Cc1ccc(CNC2CCc3ccccc32)cc1 (centres undefined)	i	0.95	94
NCCCCCC(=O)O	i	.	.	total CFTR fold 25 µM=1.2&1;total CFTR viability 25 µM=83&87
CCS(=O)(=O)N1CCC(NC(=O)c2ccc(Cl)o2)CC1	i	1.1	99
O=S(=O)(Nc1ccc(S(=O)(=O)C(F)F)cc1)c1cccs1	i	0.94	98
CC[C@@H](C(=O)C(C)[C@@H](O)[C@H](C)CCc1ccc(C)c(O)c1C(=O)O)C1OC(CC)(C2CC[C@](O)(CC)[C@H](C)O2)C[C@@H]1C (some centres undefined)	i	.	.	total CFTR fold 25 µM=0.64;total CFTR viability 25 µM=12
C=CCn1c(-c2cccnc2)nn(CN2CCc3ccccc3C2)c1=S	i	1.1	111
Cc1ccc(C(C)NC(=O)c2cccs2)o1 (centres undefined)	i	0.99	93
Brc1ccccc1CNC1CCCc2c1cnn2Cc1ccccc1 (centres undefined)	i	0.89	79
O=C1c2ccccc2C(=O)N1CCSc1nnc(-c2ccc3c(c2)OCO3)o1	i	1.1	76
C=CCn1c(COc2ccc(OC)cc2)nnc1SCn1nnc2ccccc2c1=O	i	0.99	88
COC(=O)CSc1nc2cc(F)c(F)cc2[nH]1	i	1.3	95
CCN(CC)CCNC(=O)c1cc(Br)c(N)cc1OC	i	.	.	total CFTR fold 25 µM=1;total CFTR viability 25 µM=97
CC(C(=O)O)c1ccc2c(c1)Cc1cccnc1O2 (centres undefined)	i	.	.	total CFTR fold 25 µM=1&1;total CFTR viability 25 µM=109&96
O=S(=O)(c1ccc(Cl)c(C(F)(F)F)c1)N1CCN(c2nccs2)CC1	i	1	95
CC(C)c1nn(CN2c3ccc([N+](=O)[O-])cc3CC2C)c(=S)n1C1CC1 (centres undefined)	i	0.99	83

By substructure: the compounds so far containing a tert-butyl group (3)
SMILES	total CFTR	total CFTR fold 10 ug/mL	total CFTR viability 10 ug/mL	others
CC(C)(C)NC(=O)NC(=O)COC(=O)C12CC3CC(CC(O)(C3)C1)C2	i	1.1	92
CN(CC12CC3CC(CC(C3)C1)C2)C(=O)C1CCN(C(=O)C(C)(C)C)CC1	i	0.96	85
Cc1nn(CC(=O)NC(C)(C)C)c(C)c1[N+](=O)[O-]	i	0.99	94

Other compounds follow.
SMILES	total CFTR	total CFTR fold 10 ug/mL	total CFTR viability 10 ug/mL	others
CCc1nn(CCCN2CCN(c3cccc(Cl)c3)CC2)c(=O)n1CCOc1ccccc1	i	.	.	total CFTR fold 25 µM=0.97&0.77;total CFTR viability 25 µM=80&106
CC1CC1c1ccc(/C=C/C(=O)N2CCC(NS(C)(=O)=O)CC2)o1 (centres undefined)	i	1	97
Cn1c(SCCCN2C(=O)NC(C)(C)C2=O)nnc1-c1ccco1	i	1.1	111
COC(=O)COC(=O)C1=NN(c2ccccc2)C(=O)CC1	i	1.1	90
O=C1c2ccccc2C(O)(c2ccc(Cl)cc2)N1CCSCc1ccco1 (centres undefined)	i	0.9	77
O=S1(=O)CCC(N2CCN(S(=O)(=O)c3ccc4c(c3)CCC4)CC2)C1 (centres undefined)	i	0.97	96
CC(C)(CNC(=O)CCC1CCCCC1)N1CCOCC1	i	0.95	86
Cc1noc(C)c1S(=O)(=O)N1CCN(Cc2c(-c3ccccc3)nc3sccn23)CC1	i	0.96	84
C[C@H](Cn1cnc2c(N)ncnc21)OCP(=O)(O)O	i	.	.	total CFTR fold 25 µM=0.9&1.1;total CFTR viability 25 µM=98&111
CCC(CC)N(C(=O)Cc1c(C)nc2nc(SC)nn2c1C)C1CC1	i	0.93	92
Cc1ccnc(NC(=O)C2CCN(Cn3nc4c(Cl)cc(Cl)cn4c3=S)CC2)c1	i	1	88
O=C(CN1C(=O)NC2(CCSC2)C1=O)Nc1ccc([N+](=O)[O-])cc1Cl (centres undefined)	i	1	98
CCCNC(=O)CSc1nnc(NC2CC2)s1	i	1	93
CN1CCC(=C2c3ccccc3CCc3cccnc32)CC1	i	.	.	total CFTR fold 25 µM=1.1;total CFTR viability 25 µM=93
O=c1c2ccccc2ncn1Cc1nnsc1Cl	i	1.1	95
CN(Cc1cccs1)C(=O)CSc1ncnc2ccsc12	i	0.94	89
COc1ccc(OC)c(C(=O)COC(=O)c2cc(Cl)cc(Cl)c2)c1	i	1.1	83
O=S(=O)(c1ccc(F)cc1)N(Cc1ccccn1)C1CC1	i	0.99	97
O=C1/C(=C/c2cccs2)CCC/C1=C\c1cccs1	i	.	.	total CFTR fold 25 µM=1.2;total CFTR viability 25 µM=88
O=c1ccc([N+](=O)[O-])cn1Cc1cc(Cl)c2c(c1)OCCO2	i	1	95
O=S(=O)(NCc1ccnc(-n2cccn2)c1)c1cccs1	i	1.1	104
O=C(/C=C/c1ccc2c(c1)OCO2)c1ccc2c(c1)-c1ccccc1C2	i	1.1	87
O=C(c1ccn[nH]1)N1CCCC(C(F)(F)F)C1 (centres undefined)	i	1.4	97

Source: PubChem BioAssay
